GIV Gai3 FP: GIV-Galpha-i interaction inhibition | Galpha-i3/FITC-GIV peptide fluorescence polarization, 90 min; hits give low values; scaled: aluminum fluoride 0%, vehicle 100% | percent of control (FP), % (test concentration not listed) | 0.42% of 210,000 active | P08753;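 active means replicate mean at 85% of control or lower, very high polarization wells dropped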;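 further: wells of about 15 µL received 100 nL stock; the first replicate is given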
Target sequence (P08753 whole entry, looked up): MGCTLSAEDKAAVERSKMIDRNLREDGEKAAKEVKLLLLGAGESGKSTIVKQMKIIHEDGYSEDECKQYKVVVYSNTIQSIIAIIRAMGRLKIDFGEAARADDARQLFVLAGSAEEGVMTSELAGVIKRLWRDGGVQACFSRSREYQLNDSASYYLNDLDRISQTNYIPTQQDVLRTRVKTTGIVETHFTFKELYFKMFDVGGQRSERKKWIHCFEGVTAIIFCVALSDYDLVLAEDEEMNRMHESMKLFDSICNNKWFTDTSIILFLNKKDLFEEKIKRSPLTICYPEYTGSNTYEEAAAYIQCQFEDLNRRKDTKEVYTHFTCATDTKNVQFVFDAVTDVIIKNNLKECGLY
Sa growth inh: inhibitors of Staphylococcus aureus growth at 42 °C | 0.53% of 170,000 active | S. aureus RN4220 growth, OD600, 20 h; hits give low values | relative growth, % (no concentration beside the values);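 active means growth at 42 °C up to 50% and 20 or more points under that at 30 °C, or under 10% at both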;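 further: 300 nL library stock went into each well; scaled to the means of positive and negative controls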
HCMV NEC inh: cytomegalovirus nuclear egress complex inhibition; HTRF UL50-UL53 interaction, normalized percent inhibition; inhibition, % (concentration not given with the values); 0.15% of 190,000 active; AID 1918969;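 active means both replicates at 50% or more, plus weaker picks with an unusually low signal ratio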;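 further: stock transfer was 100 nL into about 20 µL; 0% = negative control wells and 100% = wells with untagged competitor protein; inactives centre near -12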
Sa growth inh second temp: recorded beside Sa growth inh, whose call it bears; relative growth, %; measured here: growth at 30 °C;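 optical density after 20 h as mean of two plates; 100% = untreated growth and lower means inhibition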
* marks the source's active call; other numbers are inactive results.

Results for C1COCCOCCOCCN1 ?
GIV Gai3 FP: 105; Sa growth inh: 95; HCMV NEC inh: -5; Sa growth inh second temp: 90

Results for C=CCn1c(=O)c2ccc(C(=O)NCc3ccc4c(c3)OCO4)cc2n(CC(=O)Nc2ccc(F)cc2)c1=O ?
GIV Gai3 FP: 95; HCMV NEC inh: -20

What do the screens show for `Brc1ccc(-n2cc3cnnc(-c4ccccc4)c3n2)cc1`?
Sa growth inh: 79; HCMV NEC inh: -23; Sa growth inh second temp: 90

What do the screens show for `CCOc1ccc(-n2c(=O)c3ccc(Cl)cc3n3c(Cn4nnc(-c5ccccc5)n4)nnc23)cc1`?
Sa growth inh: 91; HCMV NEC inh: -8; Sa growth inh second temp: 89

How did COc1ccc(COC(=O)C2=C(C)NC(=O)NC2c2ccccc2OCc2ccccc2)cc1 (stereo not drawn) do in these assays?
GIV Gai3 FP: 104; HCMV NEC inh: -41

Results for CCCCN(C(=S)Nc1ccccc1CC)C1CCN(C(C)=O)CC1 ?
GIV Gai3 FP: 101; Sa growth inh: 111; Sa growth inh second temp: 90

What do the screens show for `CC1CCC/C(=N/NC(=O)Cn2nnc3ccccc32)C1` (stereo not drawn)?
Sa growth inh: 102; HCMV NEC inh: -22; Sa growth inh second temp: 89

How did COC(=O)N/N=C/c1cccc(OC)c1O do in these assays?
Sa growth inh: 91; HCMV NEC inh: -32; Sa growth inh second temp: 83

Results for Cc1ccc(-c2nnc(Nc3ccc(F)cc3)c3ccccc23)cc1S(=O)(=O)N1CCN(C)CC1 ?
GIV Gai3 FP: 108; Sa growth inh: 117; HCMV NEC inh: -31; Sa growth inh second temp: 86

How did O=C(N(c1ccccc1)c1ccc(F)cc1)C12CC3CC(CC(C3)C1)C2 do in these assays?
GIV Gai3 FP: 102; Sa growth inh: 84; HCMV NEC inh: -38; Sa growth inh second temp: 89

How did COC(=O)c1cc2c(C(F)(F)F)cc(=O)[nH]c2s1 do in these assays?
Sa growth inh: 95; HCMV NEC inh: -40; Sa growth inh second temp: 63

How did CSc1nc2ccccc2n1Cc1ccc(C(C)C)cc1 do in these assays?
GIV Gai3 FP: 104; Sa growth inh: 82; Sa growth inh second temp: 46

Results for COc1ccccc1/C=C(\C#N)c1nc(-c2cc3cc(Br)ccc3oc2=O)cs1 ?
GIV Gai3 FP: 103; HCMV NEC inh: 0

Results for Cn1nccc1C(=O)NCc1ccc2c(c1)CCN2C(=O)c1ccccc1 ?
GIV Gai3 FP: 102; Sa growth inh: 81; Sa growth inh second temp: 80

Results for S=C(NCc1ccccc1)N1CCc2ccccc21 ?
Sa growth inh: 110; HCMV NEC inh: -6; Sa growth inh second temp: 90

Results for Cc1ccc(CNC(=O)C2CCCN(c3nc4ncccc4n4cccc34)C2)cc1 (stereo not drawn) ?
GIV Gai3 FP: 111; HCMV NEC inh: -18

What do the screens show for `COc1ccccc1Cn1c(SCC(=O)Nc2ccc(Cl)cc2F)nc2nccnc2c1=O`?
GIV Gai3 FP: 107; HCMV NEC inh: -19

What do the screens show for `COC(=O)C1c2ccccc2Oc2ccccc21`?
GIV Gai3 FP: 107; Sa growth inh: 109; HCMV NEC inh: -31; Sa growth inh second temp: 88

Results for Cc1cnc(NC(=O)COc2ccc3ccccc3c2)s1 ?
Sa growth inh: 103; HCMV NEC inh: -14; Sa growth inh second temp: 88

Results for Cc1nc2ccc(C(=O)NCC3COc4ccccc4O3)cc2nc1C (stereo not drawn) ?
GIV Gai3 FP: 102; Sa growth inh: 94; HCMV NEC inh: 4; Sa growth inh second temp: 89

How did COc1ccc(C(CC(N)=O)CC(=O)O)cc1 (stereo not drawn) do in these assays?
GIV Gai3 FP: 97; Sa growth inh: 107; HCMV NEC inh: -13; Sa growth inh second temp: 93

How did O=C1c2ccccc2C(=O)N1c1ccc(S(=O)(=O)N2CCOCC2)cc1 do in these assays?
GIV Gai3 FP: 96; Sa growth inh: 103; HCMV NEC inh: -80; Sa growth inh second temp: 89

What do the screens show for `Cc1ccc(C(=O)CSc2nc(-c3ccccc3)nc3c2CCCC3)cc1`?
GIV Gai3 FP: 102; Sa growth inh: 96; HCMV NEC inh: -14; Sa growth inh second temp: 97

Results for CCc1nc(-c2cc(S(=O)(=O)N3CCC(C(=O)N4CCN(CC)CC4)CC3)c(C)s2)no1 ?
GIV Gai3 FP: 105; HCMV NEC inh: -7

Next part; it opens with the 2 that closed the last part.
What do the screens show for `Cc1ccc(C(=O)CSc2nc(-c3ccccc3)nc3c2CCCC3)cc1`?
GIV Gai3 FP: 102; Sa growth inh: 96; HCMV NEC inh: -14; Sa growth inh second temp: 97

Results for CCc1nc(-c2cc(S(=O)(=O)N3CCC(C(=O)N4CCN(CC)CC4)CC3)c(C)s2)no1 ?
GIV Gai3 FP: 105; HCMV NEC inh: -7

What do the screens show for `COc1ccc(S(=O)(=O)N(CC(=O)NCCSc2ccc(Cl)cc2)c2ccc(C)cc2)cc1OC`?
GIV Gai3 FP: 99; HCMV NEC inh: -14

Results for O=C(Cn1c(=O)n(Cc2ccc(C(=O)NCc3ccc4c(c3)OCO4)cc2)c(=O)c2ccccc21)Nc1ccccc1F ?
GIV Gai3 FP: 102; Sa growth inh: 103; HCMV NEC inh: -7; Sa growth inh second temp: 75

Results for O=C(NC1CC1)C1=Cc2cc(Br)ccc2OC1 ?
GIV Gai3 FP: 103; HCMV NEC inh: -92

What do the screens show for `O=C(O)CCC(=O)Nc1ccc2c(c1)Cc1cc(NC(=O)CCC(=O)O)ccc1-2`?
GIV Gai3 FP: 101; Sa growth inh: 72; HCMV NEC inh: -13; Sa growth inh second temp: 57

What do the screens show for `O=C(CSc1nnc(-c2ccncc2)n1-c1ccccc1)Nc1ccc(Br)cc1`?
GIV Gai3 FP: 103; Sa growth inh: 106; Sa growth inh second temp: 95

How did O=C1CSC2=NC3=C(CCc4ccccc43)C(c3ccccc3)N12 (stereo not drawn) do in these assays?
GIV Gai3 FP: 106; Sa growth inh: 94; HCMV NEC inh: -39; Sa growth inh second temp: 85

Results for Cc1c(C(=O)NCc2cccs2)oc2ccc3c(c12)C(=O)CC1(CCCC1)O3 ?
GIV Gai3 FP: 105; Sa growth inh: 93; HCMV NEC inh: -24; Sa growth inh second temp: 78

What do the screens show for `CC(=O)N1CCC(N(Cc2ccc(C)o2)C(=O)Nc2cccc(C(F)(F)F)c2)CC1`?
GIV Gai3 FP: 101; Sa growth inh: 103; Sa growth inh second temp: 82

How did COc1ccc(CNC(=O)C2CCN(S(=O)(=O)c3cccc4nonc34)CC2)cc1OC do in these assays?
GIV Gai3 FP: 108; Sa growth inh: 115; Sa growth inh second temp: 91

What do the screens show for `CCC(Cc1ccccc1)NS(=O)(=O)c1ccc2c(c1)CC(C)N2C(=O)C1CC1` (stereo not drawn)?
GIV Gai3 FP: 104; Sa growth inh: 96; Sa growth inh second temp: 93

Results for O=S(=O)(c1ccccc1OC(F)(F)F)N1CCN(c2c(Cl)cncc2Cl)CC1 ?
GIV Gai3 FP: 105; Sa growth inh: 109; HCMV NEC inh: 0; Sa growth inh second temp: 105

What do the screens show for `N#CCCn1cc(C(=O)Nc2nccs2)c(-c2cccs2)n1`?
GIV Gai3 FP: 111; Sa growth inh: 95; HCMV NEC inh: 13; Sa growth inh second temp: 96

Filtered by structure, the compounds so far containing a COOH group.
How did COc1ccc(C(CC(N)=O)CC(=O)O)cc1 (stereo not drawn) do in these assays?
GIV Gai3 FP: 97; Sa growth inh: 107; HCMV NEC inh: -13; Sa growth inh second temp: 93

What do the screens show for `O=C(O)CCC(=O)Nc1ccc2c(c1)Cc1cc(NC(=O)CCC(=O)O)ccc1-2`?
GIV Gai3 FP: 101; Sa growth inh: 72; HCMV NEC inh: -13; Sa growth inh second temp: 57

Following part:
Results for CCOC(=O)c1[nH]c(C)c(CNc2ccccc2)c1C ?
Sa growth inh: 97; HCMV NEC inh: -9; Sa growth inh second temp: 76

Results for O=C(Cc1ccc(F)cc1)Nc1cc(=O)[nH]c(=O)[nH]1 ?
GIV Gai3 FP: 96; Sa growth inh: 87; HCMV NEC inh: -14; Sa growth inh second temp: 89

Results for CCn1c(=O)c(=O)[nH]c2cc(C(=O)NCc3cccs3)ccc21 ?
Sa growth inh: 87; HCMV NEC inh: 23; Sa growth inh second temp: 85

How did Cc1ccc(C)c(N2CCN(c3ccc(NC(=O)c4cccs4)cc3C(=O)O)CC2)c1 do in these assays?
GIV Gai3 FP: 108; Sa growth inh: 117; Sa growth inh second temp: 99

How did CC(C)OCC(O)CN (stereo not drawn) do in these assays?
GIV Gai3 FP: 105; Sa growth inh: 77; HCMV NEC inh: -3; Sa growth inh second temp: 99

Results for Cc1cccc(C(=O)NC(Cc2ccccc2)C(N)=O)c1 (stereo not drawn) ?
GIV Gai3 FP: 103; Sa growth inh: 95; HCMV NEC inh: -15; Sa growth inh second temp: 103

Results for COc1ccc(C2=Nc3ccccc3N(Cc3ccc(Cl)cc3F)C(=O)C2)cc1 ?
GIV Gai3 FP: 98; HCMV NEC inh: -25

What do the screens show for `Cn1ncc2c(Nc3ccccc3)ncnc21`?
GIV Gai3 FP: 109; Sa growth inh: 101; HCMV NEC inh: -7; Sa growth inh second temp: 63

How did Cc1ccc(C)c(N2CCN(CCCNC(=O)CN3C(=O)CSc4ncccc43)CC2)c1 do in these assays?
GIV Gai3 FP: 108; Sa growth inh: 94; Sa growth inh second temp: 87

Results for Cc1ccc2nc(Nc3ccccc3)cc(C)c2c1 ?
Sa growth inh: 75; HCMV NEC inh: 0; Sa growth inh second temp: 74

What do the screens show for `O=S(=O)(Cc1ccc(Cl)cc1)NCCN1CCOCC1`?
GIV Gai3 FP: 103; Sa growth inh: 97; HCMV NEC inh: -6; Sa growth inh second temp: 103

Results for CCOc1ccccc1NC(=O)c1ccc(Br)cc1 ?
Sa growth inh: 78; HCMV NEC inh: -4; Sa growth inh second temp: 95

Arranged by number of heavy atoms (smallest number first): some entries from above
Results for CCn1c(=O)c(=O)[nH]c2cc(C(=O)NCc3cccs3)ccc21 ?
Sa growth inh: 87; HCMV NEC inh: 23; Sa growth inh second temp: 85

How did Cc1ccc(C)c(N2CCN(c3ccc(NC(=O)c4cccs4)cc3C(=O)O)CC2)c1 do in these assays?
GIV Gai3 FP: 108; Sa growth inh: 117; Sa growth inh second temp: 99

How did Cc1ccc(C)c(N2CCN(CCCNC(=O)CN3C(=O)CSc4ncccc43)CC2)c1 do in these assays?
GIV Gai3 FP: 108; Sa growth inh: 94; Sa growth inh second temp: 87

The list continues.
What do the screens show for `CCOc1ccccc1CNC(=O)C1CCCN(c2nnc(C)c3c(C)n(-c4ccccc4)nc23)C1` (stereo not drawn)?
GIV Gai3 FP: 109; Sa growth inh: 88; Sa growth inh second temp: 89

What do the screens show for `COc1cccc(NC(=O)CSc2nc3ccsc3c(=O)n2Cc2ccccc2Cl)c1`?
GIV Gai3 FP: 100; Sa growth inh: 87; HCMV NEC inh: 2; Sa growth inh second temp: 85

Results for O=C(NCc1ccc2c(c1)OCO2)C1CCCN(c2nc3ccsc3c(=O)s2)C1 (stereo not drawn) ?
GIV Gai3 FP: 103; Sa growth inh: 101; HCMV NEC inh: -4; Sa growth inh second temp: 100

Results for O=C(N/N=C1/SCC(=O)N1Cc1ccco1)c1ccccc1F ?
GIV Gai3 FP: 108; Sa growth inh: 112; HCMV NEC inh: 8; Sa growth inh second temp: 76

Results for Cc1ccc(S(=O)(=O)Nc2ccc(-c3nc4ccccc4o3)cc2)cc1 ?
Sa growth inh: 104; HCMV NEC inh: -9; Sa growth inh second temp: 92

What do the screens show for `CC(C)COC(=O)C(C)Oc1ccc2c3c(c(=O)oc2c1)CCC3` (stereo not drawn)?
GIV Gai3 FP: 101; Sa growth inh: 113; Sa growth inh second temp: 99

What do the screens show for `COc1ccc(OC)c(/C=C2/SC(=S)N(CC(=O)O)C2=O)c1`?
GIV Gai3 FP: 104; HCMV NEC inh: -84

How did Oc1ccc(-c2csc3nc(-c4ccccc4)nn23)c(O)c1 do in these assays?
GIV Gai3 FP: 108; Sa growth inh: 82; HCMV NEC inh: -7; Sa growth inh second temp: 54

What do the screens show for `Cc1cc(C(C)(C)C)ccc1NC(=O)CC(C)(C)CC(=O)O`?
GIV Gai3 FP: 105; Sa growth inh: 113; HCMV NEC inh: -8; Sa growth inh second temp: 93

Results for O=C1/C(=C/c2cccnc2)SC(=NCc2ccccc2)N1Cc1ccccc1 ?
GIV Gai3 FP: 103; HCMV NEC inh: -27

Results for O=C(O)c1ccc(Nc2ncnc3ccc(Br)cc23)cc1 ?
GIV Gai3 FP: 111; Sa growth inh: 80; HCMV NEC inh: -35; Sa growth inh second temp: 84

How did c1csc(-c2nc(N3CCCCC3)no2)c1 do in these assays?
GIV Gai3 FP: 98; Sa growth inh: 95; HCMV NEC inh: -14; Sa growth inh second temp: 82

Results for COc1ccc2sc(N)nc2c1 ?
GIV Gai3 FP: 99; Sa growth inh: 127; HCMV NEC inh: -4; Sa growth inh second temp: 79

What do the screens show for `Cc1cc(O)c(C(c2ccccc2Cl)N2CCCCC2)c(=O)n1Cc1ccco1` (stereo not drawn)?
GIV Gai3 FP: 98; Sa growth inh: 102; Sa growth inh second temp: 90

Results for CCCCC1(C)OC(=O)C(=Cc2ccc(SC)cc2)C(=O)O1 (stereo not drawn) ?
GIV Gai3 FP: 92; Sa growth inh: 88; Sa growth inh second temp: 83

How did COC(CNC(=O)CN1C(=O)/C(=C\c2ccc(Cl)cc2)Oc2ccc(C(C)(C)C)cc21)OC do in these assays?
GIV Gai3 FP: 100; Sa growth inh: 101; Sa growth inh second temp: 80
